# HNF4A DNA FP: change in binding of human HNF4 alpha to DNA; actives 0.3% (n = 360,000); P41235; HNF4a-FITC DNA binding, fluorescence polarization, 1 h; AID 1224865; activity change, % at 10 µM; in the data active means activity change above about 30%, passing the limit was not always enough;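 further: controls were the assay level and a saturating level of protein; the project sought stronger binding though the title names inhibitors; some compounds called inactive have numbers as strong as hits; positive values seem to mean higher polarization but the record does not say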
# Target sequence (P41235 whole entry, looked up): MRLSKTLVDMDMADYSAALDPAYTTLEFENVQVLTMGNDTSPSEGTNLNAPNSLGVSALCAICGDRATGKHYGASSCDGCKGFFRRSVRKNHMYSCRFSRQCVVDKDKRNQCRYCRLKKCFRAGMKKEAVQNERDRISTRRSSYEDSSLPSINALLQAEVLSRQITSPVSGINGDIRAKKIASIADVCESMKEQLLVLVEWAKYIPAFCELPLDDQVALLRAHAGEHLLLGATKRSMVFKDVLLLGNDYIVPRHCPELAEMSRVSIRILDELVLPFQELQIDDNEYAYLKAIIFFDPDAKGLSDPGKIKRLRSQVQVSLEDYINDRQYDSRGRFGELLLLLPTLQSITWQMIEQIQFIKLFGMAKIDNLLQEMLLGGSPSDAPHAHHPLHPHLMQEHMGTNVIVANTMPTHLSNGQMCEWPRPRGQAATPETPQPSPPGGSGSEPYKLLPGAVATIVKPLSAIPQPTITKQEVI
# Ecoli rRNA inh: inhibits bacterial ribosomal RNA function over humanized ribosomes | E. coli WT GFP vs humanized-ribosome RFP mutants, fluorescence, 24 h; hits give low values; DMSO median 0, no signal -100 | GFP signal change (wild-type ribosome), % (no concentration beside the values) | actives 1.6% (n = 350,000) | AID 720706;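 active means significant combined selectivity score with lowered wild-type GFP, culture density cut under 30%, mutant RFP and density less affected; inactive means any of these conditions unmet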; further: one replicate is shown; some compounds called inactive have numbers as strong as hits
# ALR inh: inhibitors of human sulfhydryl oxidase ALR; P55789; purified ALR, DTT oxidation, H2O2 HRP-luminol luminescence; inhibition, % (test concentration not listed); actives 3.8% (n = 290,000); AID 485317;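 active means mean and each replicate at 75% or more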;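 further: stock transfer was 7.5 nL into about 7.5 µL; 0% = neutral wells and 100% = wells with inactivated enzyme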
# FGF22 binding: shifts melting point of recombinant human FGF22. Q9HCT0. recombinant FGF22 thermal shift, SYPRO orange fluorescence; percent of sucrose octasulfate shift, DMSO zero. calls only at 9.99 µM. actives 1.5% (n = 340,000);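 active means melting point raised past a set limit in the mean and every replicate; three in four hits are not shown here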
# Target sequence (Q9HCT0 whole entry, looked up): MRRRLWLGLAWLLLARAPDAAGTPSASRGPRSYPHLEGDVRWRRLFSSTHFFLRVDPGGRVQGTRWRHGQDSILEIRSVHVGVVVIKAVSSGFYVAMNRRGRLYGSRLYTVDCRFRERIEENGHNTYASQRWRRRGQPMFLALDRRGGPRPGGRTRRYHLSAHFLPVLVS
# UCH37 inh: inhibitors of human deubiquitinating enzyme UCH37. inhibition, % (no concentration beside the values). Q9Y5K5. actives 0.33% (n = 330,000). purified proteasome/UCH37, Ub-AMC cleavage fluorescence;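 active means mean of two replicates above 20%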;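 further: 0% = compound-free wells with enzyme and 100% = wells lacking proteasome; stock transfer was 100 nL into about 20 µL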
#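 assay system = human UCH37 enzyme supplied as purified proteasome complex | amount = proteasome at 0.15 nM in the dispensed enzyme solution | schedule = 30 min compound-proteasome preincubation then 25 min substrate reaction, room temperature | measured by = fluorescence, ex 355 nm, em 460 nm | benchmarks = no-proteasome wells (full inhibition) and compound-free wells (no inhibition)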
# Beta2AR agonist: activates human beta-2 adrenergic receptor causing internalization; P07550; Am2.2-beta2AR cells, FAP receptor internalization, flow cytometry; reference of the scale not given here; response, % (test concentration not listed); actives 0.43% (n = 340,000); AID 504454;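 active means response above a set limit, near 3 SD of response in nonfluorescent compounds, cut at about 42% in these data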;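 further: stock transfer was 100 nL into about 11 µL; a reference agonist was the positive control; negative values mostly stem from fluorescent compounds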
# Target sequence (P07550 whole entry, looked up): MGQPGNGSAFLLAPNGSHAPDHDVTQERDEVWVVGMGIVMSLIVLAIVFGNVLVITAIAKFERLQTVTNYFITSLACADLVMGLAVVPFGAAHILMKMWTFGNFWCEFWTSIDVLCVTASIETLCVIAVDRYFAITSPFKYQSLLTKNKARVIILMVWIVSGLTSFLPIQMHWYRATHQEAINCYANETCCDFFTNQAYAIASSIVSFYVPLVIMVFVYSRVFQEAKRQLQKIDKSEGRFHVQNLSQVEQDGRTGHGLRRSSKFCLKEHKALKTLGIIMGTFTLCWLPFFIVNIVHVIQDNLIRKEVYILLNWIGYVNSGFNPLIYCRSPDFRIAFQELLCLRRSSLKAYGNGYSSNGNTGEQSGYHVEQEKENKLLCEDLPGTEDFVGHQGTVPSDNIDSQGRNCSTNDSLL
# E coli growth: inhibitors of Escherichia coli growth. actives 0.21% (n = 330,000). OD600 absorbance (no concentration beside the values). AID 1053175. OD600, 23 h; hits give low values;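 active means OD600 absorbance below the run mean of sample wells minus 3.6 SD, in any replicate, cut at about 0.56 in these data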;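 further: stock transfer was 300 nL into about 60 µL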
# Ecoli rRNA inh OD600: second read-out of Ecoli rRNA inh, no call of its own (marks repeat the call); OD600 change, %; measured here: OD600 growth;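 optical density of the mix in the first replicate; 0 = DMSO median and -100 = no signal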
# Ecoli rRNA inh RFP: second read-out of Ecoli rRNA inh, no call of its own (marks repeat the call); RFP signal change, %; measured here: RFP humanized mutant strains;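 first replicate; 0 = DMSO median and -100 = no signal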
# Numbers without * were called inactive; i = inactive; . = not tested or not shown. These rows are one share of the data. The share of hits here may be higher or lower than overall.
SMILES,HNF4A DNA FP,Ecoli rRNA inh,Ecoli rRNA inh OD600,Ecoli rRNA inh RFP,ALR inh,FGF22 binding,UCH37 inh,Beta2AR agonist,E coli growth
O=C(NC(Cc1ccccc1)c1nc2ccccc2[nH]1)c1ccc(Cl)c([N+](=O)[O-])c1 (stereo not drawn),2.8,21,17,3.1,-8,i,2.1,10,0.66
N#Cc1cccc(NC(=O)c2nc(-c3ccccc3)n(-c3ccccc3)n2)c1,1.1,.,.,.,-1,.,-2.4,2,0.74
O=C(c1cc(-c2cccc(Cl)c2)on1)N1CCOCC1,-0.3,5,6,0.0,.,i,1.3,-4,0.7
C#CCOCCOCCOCCNc1nc(N2CCN(C(=O)[C@H]([C@@H](C)CC)n3cc(CCCCN)nn3)CC2)nc(N2CCN(C(=O)[C@H]([C@@H](C)CC)n3cc(CCCN=C(N)N)nn3)CC2)n1,5.3,6,2,0.3,.,i,-3.6,1,.
CC(C)(C)OC(=O)N1CCCC1C(=O)N1CCCC1C(=O)N1CCCC1C(=O)O (stereo not drawn),-1.9,.,.,.,.,.,.,-6,0.71
O=C(Nc1ccccc1C(F)(F)F)C1CCCC1,-3.1,5,9,2.8,0,i,0.3,-7,0.66
CCc1ccc(OCCNC(=O)OCc2ccccc2)cc1,1.4,.,.,.,0,.,2.5,-11,0.7
CC(CNS(=O)(=O)c1ccc(Cl)cc1)n1cncn1 (stereo not drawn),0.6,4,-10,0.6,.,i,-0.1,1,0.7
CS(=O)(=O)N1CCN(C(=O)c2ccccc2)C1,1.0,.,.,.,12,.,2.0,-5,0.67
CCc1nc2ccc(C(=O)N(CC)CCN(C)C)cn2c1N(C)C(=O)C1CCCCC1,0.6,6,5,1.9,.,i,.,.,.
COCOCCn1cc(CN2CCS(=O)(=O)N(Cc3ccc(-c4ccc(F)nc4)cc3)C(C)C2=O)nn1 (stereo not drawn),-3.8,1,3,-7.3,.,i,.,.,.
O=C1CN(C(=O)COC(=O)c2cccc(OCc3ccccc3)c2)c2ccccc2N1,5.9,.,.,.,-2,.,2.0,15,0.69
COc1cc([C@@H]2CC=C(C(=O)O)[C@H](c3ccccc3)N2S(=O)(=O)c2ccc(C)cc2)cc(OC)c1OC,0.4,2,-1,-4.0,20,i,0.4,-3,.
COC(=O)c1sc(-c2ccccc2)cc1NC(C)=O,1.4,-23,-24,-5.4,2,.,-5.5,-1,0.7
COc1ccc(N2CCN(C3CCCN(C(=O)CCN4CCCCO4)C3)CC2)cc1 (stereo not drawn),-0.3,9,8,1.3,.,i,2.1,-1,0.71
CN1c2ccsc2C(O)=C(C(=S)Nc2ccccc2)S1(=O)=O,-2.3,.,.,.,13,.,21*,-5,0.74
CSc1ccccc1N=Cc1nc(-c2ccccc2)oc1O,4.8,.,.,.,4,.,-5.6,-1,0.78
CCn1c(SCc2ccccc2Cl)nc2nc3c(cc2c1=O)CCCC3,0.8,-11,-10,-7.8,.,i,-0.1,14,0.71
O=C(c1cc2c(s1)CCCCC2)N1CCN(c2ncccn2)CC1,4.0,.,.,.,-4,.,0.5,9,0.69
COC(=O)NN1C(=O)C(c2ccccc2)=C(c2ccc(Cl)cc2)C1=O,1.2,-23,-20,0.5,-6,i,0.6,-2,0.69
CCOc1cc(/C=C2\SC(=S)N(N3CCOCC3)C2=O)ccc1O,1.7,-5,14,4.4,-4,i,7.2,-2,0.72
Cc1cccc(N2CCN(C(=O)c3cc4c(=O)n(C)c5ccccc5c4n3C)CC2C)c1 (stereo not drawn),6.6,.,.,.,16,.,4.1,.,0.74
CC(=O)c1cccc(N(C(=O)CNC(=O)c2ccco2)C(C(=O)NC2CCCC2)c2ccc(C)o2)c1 (stereo not drawn),0.4,18,16,1.1,-4,i,0.4,4,0.73
O=C(NCc1ccccc1)/C(=C/c1ccc(OC(F)F)cc1)c1ccccc1,2.5,.,.,.,-7,.,4.7,-4,0.7
COc1cccc(C(C)(O)c2nc(-c3cc4ccccc4o3)cs2)c1 (stereo not drawn),-2.5,-61,-65,-19,.,i,.,.,.
OC(c1ccccc1)(C1CCCCC1)C(CN1CCOCC1)c1ccccc1 (stereo not drawn),0.3,-11,-42,-3.2,-3,i,6.3,12,0.67
Cn1c(=O)c2ncn(CC(=O)O)c2n(C)c1=O,5.8,6,9,2.6,.,i,.,-3,.
COc1cc(/C=C/C(=O)Nc2ccc3nc4n(c(=O)c3c2)CCCC4)cc(OC)c1OC,4.1,6,9,-0.1,45,i,-1.8,-10,0.63
Cn1c(=O)c(C(=O)CSc2nnc(Nc3ccccc3)s2)c(N)n(Cc2ccccc2)c1=O,-0.8,.,.,.,2,.,10,-2,0.81
O=C(NCc1ccccc1)N(Cc1cc2cc3c(cc2[nH]c1=O)OCO3)CC1CCCO1 (stereo not drawn),-1.6,.,.,.,-6,.,-27,-5,0.74
O=C(Nc1ccc(Cl)c(C(F)(F)F)c1)NC1CC2CCCC(C1)N2C1CC1 (stereo not drawn),-0.2,.,.,.,-6,.,5.8,4,0.68
COc1cc2c(cc1OC)C(c1ccccc1C(F)(F)F)CC(=O)N2 (stereo not drawn),-6.5,-3,-8,-2.2,1,i,.,-10,.
CCC(C)Sc1ccc([C@H]2N[C@@](CC(C)C)(C(=O)OC)[C@H]3C(=O)N(C)C(=O)[C@@H]23)cc1 (stereo partly drawn),-1.9,-5,-24,4.9,0,i,3.7,6,.
O=C(c1ccc(Cl)c(Cl)c1)N1CCCC1,0.5,.,.,.,1,.,2.8,-6,0.66
CC1CCCC(NCC(O)COC(c2ccc(F)cc2)c2ccc(F)cc2)C1C (stereo not drawn),2.3,-53*,-37*,-13*,-22,i,0.9,11,0.62
C=CCNC(=S)N/N=C(\C)c1ccc(-n2ccnc2)cc1,-1.2,0,-4,-1.0,0,i,.,-11,.

# Grouped by structure: the compounds so far containing an aryl methoxy group.
SMILES,HNF4A DNA FP,Ecoli rRNA inh,Ecoli rRNA inh OD600,Ecoli rRNA inh RFP,ALR inh,FGF22 binding,UCH37 inh,Beta2AR agonist,E coli growth
COc1cc([C@@H]2CC=C(C(=O)O)[C@H](c3ccccc3)N2S(=O)(=O)c2ccc(C)cc2)cc(OC)c1OC,0.4,2,-1,-4.0,20,i,0.4,-3,.
COc1ccc(N2CCN(C3CCCN(C(=O)CCN4CCCCO4)C3)CC2)cc1 (stereo not drawn),-0.3,9,8,1.3,.,i,2.1,-1,0.71
COc1cccc(C(C)(O)c2nc(-c3cc4ccccc4o3)cs2)c1 (stereo not drawn),-2.5,-61,-65,-19,.,i,.,.,.
COc1cc(/C=C/C(=O)Nc2ccc3nc4n(c(=O)c3c2)CCCC4)cc(OC)c1OC,4.1,6,9,-0.1,45,i,-1.8,-10,0.63
COc1cc2c(cc1OC)C(c1ccccc1C(F)(F)F)CC(=O)N2 (stereo not drawn),-6.5,-3,-8,-2.2,1,i,.,-10,.

# Further compounds follow:
SMILES,HNF4A DNA FP,Ecoli rRNA inh,Ecoli rRNA inh OD600,Ecoli rRNA inh RFP,ALR inh,FGF22 binding,UCH37 inh,Beta2AR agonist,E coli growth
CCOC(=O)c1[nH]nc2c1C(=O)N(Cc1ccccc1)C2=O,-2.7,.,.,.,10,.,4.8,2,0.74
CCN(CCn1cccn1)C(=O)CC1C(=O)NCCN1Cc1ccc(OC)c(OC)c1 (stereo not drawn),1.8,9,14,2.7,.,i,4.2,0,0.74
CCN(CC)S(=O)(=O)c1cc(-c2nnc(-c3ccc(Br)cc3)o2)ccc1Cl,-1.1,.,.,.,-5,.,1.0,-3,0.72
COCCNC(=O)C(c1ccc(C)o1)N(C(=O)C(=O)NC1CCCCC1)c1ccc(F)cc1 (stereo not drawn),-1.3,12,-3,1.1,-4,i,3.3,4,0.67
CCOC(=O)c1c(NC(=O)CN2CCN(C(=O)c3ccco3)CC2)sc2c1CCCC2,0.3,.,.,.,11,.,2.1,4,0.74
Cc1ccc(NC(=O)C2CCN(C(=O)c3ccccc3C)CC2)cc1,2.1,-5,-6,-3.8,-2,i,-1.3,18,0.68
Cc1ccc(NC(=O)NC2(C(=O)NCc3ccco3)CCCCC2)cc1,2.5,.,.,.,1,.,0.9,-8,0.71
COc1ccc(-c2coc3c(C(=O)NCCc4ccccc4)cccc23)c(C)c1,2.5,10,10,4.9,.,i,.,.,.
CCN(CC(=O)NCc1ccc(F)cc1)C(=O)/C=C/c1ccc(OC)c(S(=O)(=O)NC(C)C)c1,-1.7,8,-7,3.4,-6,i,3.7,30,0.69
O=C(CCSCc1ccccc1Cl)NC1CCCCC1,1.0,-12,9,-5.0,-11,i,0.7,-6,0.67
CCOC(=O)C1CCCN(C(=O)C2CCN(Cc3nc(-c4ccc(Cl)cc4)oc3C)CC2)C1 (stereo not drawn),7.0,-3,-5,13,.,i,4.6,4,0.68
O=C(CCCN1CCOC(c2ccccc2)C1)c1ccc(F)cc1 (stereo not drawn),0.3,-20,-21,-0.5,-34,i,-0.5,8,0.63
O=S(=O)(c1ccc(Cl)s1)N1CCN(Cc2ccccc2)CC1,-3.4,.,.,.,-8,.,6.6,-3,0.75
CC(=O)NC(=S)Nc1ccc(NC(=O)COc2ccc(Cl)cc2)cc1,6.0,.,.,.,-4,.,2.6,0,0.69
O=C(OCC(=O)N1CCN(C(=O)COC(=O)c2ccc(O)cc2O)CC1)c1ccc(O)cc1O,2.0,4,4,0.8,-2,i,3.2,-7,0.69
Cc1cc(/C(N)=N/OC(=O)Nc2ccc(Cl)cc2)no1,-1.2,-11,-1,-2.2,-9,i,2.6,2,0.63
CCCCc1c(O)nc(SCC(=O)N2CCOCC2)n(-c2ccc(OC)cc2)c1=O,3.1,0,0,-0.9,9,i,4.1,0,0.66
CC(=O)c1cnc(SCC(=O)O)nc1C,-4.5,12,19,-1.1,-7,i,4.2,6,0.7
CCc1nc2ccc(C(=O)Nc3ccc(OC)c(OC)c3)cn2c1N(C)Cc1cccs1,0.5,-30,-58,-4.6,.,i,.,.,.
CN1CCc2c(sc(NC(=O)c3ccc([N+](=O)[O-])o3)c2C(N)=O)C1,3.5,-53,-80,-18,-10,i,.,33,.
Cc1ccc(S(=O)(=O)NCCn2nc(C)cc2C)cc1,-1.2,5,11,-1.6,-2,i,0.1,0,0.64
CCCCn1c(N)c(N(CC(C)C)C(=O)C2CCN(S(=O)(=O)c3ccc(C)cc3)CC2)c(=O)[nH]c1=O,-1.0,15,10,-0.4,-1,i,-1.4,1,0.67
Nc1c2c(nc3ccn(Cc4ccccc4)c(=O)c13)CCC2,14,.,.,.,-19,.,-4.5,-4,0.73
CCN(CC)S(=O)(=O)c1ccc(N)cc1,-1.2,21,16,4.5,-9,i,3.1,-1,0.73
COC(=O)C1CCN(C(=O)CN2C(=O)NC(CC(C)C)C2=O)CC1 (stereo not drawn),-2.3,9,24,-0.5,.,i,1.4,2,0.69
Cn1cc(CNC(=O)c2ccc(OC3CCN(Cc4ccccn4)CC3)cc2)cn1,-1.9,1,-2,-2.4,-23,i,.,-9,.
Cc1cc(C)cc(C(=O)OCC(=O)NC2CCCC2)c1,2.8,7,8,-3.5,-3,i,-0.1,-11,0.68
CSc1nc(C)cc(C)c1C(N)=O,-1.4,.,.,.,1,.,0.6,5,0.69
Cc1ccc(S(=O)(=O)N2CCN(C(=O)COC(=O)/C=C/c3ccccc3)CC2)c(C)c1,0.3,17,16,-1.4,4,i,2.5,-4,0.68
COc1ccc(C2=C(O)C(C)N(c3ccccc3)C2=N)cc1OC (stereo not drawn),0.0,.,.,.,1,.,2.9,-1,0.72
CCOc1cc(C2NC(=O)NC(O)(C(F)(F)F)C2C(=O)c2ccc(OC)cc2)ccc1O (stereo not drawn),-0.8,.,.,.,33,.,4.5,1,0.73

# Source: PubChem BioAssay
